TAAR1 agonist = human TAAR1 agonists, primary screen, Fluo-8 calcium fluorescence, CHO RD-HGA16 cells | Trace amine-associated receptor 1 (Homo sapiens), Q96RJ0 | vehicle wells 0%, saturating PEA agonist 100% | activation, % at 3 µM | hit rate 0.99% among 360,000;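 active = activation above the mean activation of all test compounds in the run plus 3 SD, cut at about 38% in these data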
Target sequence (Q96RJ0 whole entry, looked up): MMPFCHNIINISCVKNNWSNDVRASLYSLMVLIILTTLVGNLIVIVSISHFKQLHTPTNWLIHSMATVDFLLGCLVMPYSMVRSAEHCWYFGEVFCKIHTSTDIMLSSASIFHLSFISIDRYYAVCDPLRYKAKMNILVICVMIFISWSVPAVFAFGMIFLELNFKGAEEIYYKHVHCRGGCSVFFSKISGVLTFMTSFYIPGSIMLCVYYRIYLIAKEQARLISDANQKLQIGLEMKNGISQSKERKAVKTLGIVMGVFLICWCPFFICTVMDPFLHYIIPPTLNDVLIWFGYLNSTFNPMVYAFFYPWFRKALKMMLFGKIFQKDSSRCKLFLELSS
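Benchmarks: low control DMSO, high control PEA (EC100); System: CHO RD-HGA16 cells carrying human TAAR1 plus Gα16; Detection: Fluo-8 fluorescence, 5 s baseline then 140 s kinetic read; Schedule: 17-24 h plating, Fluo-8 75 min 37 °C, 30 min RT; Read-out basis: % activation from peak over basal fluorescence ratio, DMSO-to-PEA scaled.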
CHO parental Ca = ATP-evoked calcium signal inhibitors, parental CHO, primary screen, counter-screen for OX1R antagonist project, cell-based, fluorescence, Fluo-8 calcium dye; inhibition, % at 5.6 µM; parental CHO-K1, ATP-induced calcium, Fluo-8 fluorescence; AID 463079, 2010; hit rate 0.63% among 330,000;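 active = inhibition above that plate's mean sample inhibition plus 3 SD, cut at about 26% in these data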;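 note: 0% = ATP-challenged DMSO wells and 100% = DMSO wells without ATP; some compounds past the cut are filed as inactive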
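Material – parental CHO cells · Reagent – ATP stimulus · Compound – single nominal dose of 5.6 µM per compound · Detection – Fluo-8 fluorescence · Read-out basis – percent inhibition of calcium signal · Controls – ATP-challenged DMSO wells low, unchallenged DMSO wells high · Repeats – no replicates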
TAAR1 antagonist = human TAAR1 antagonists, primary screen, Fluo-8 calcium fluorescence, CHO RD-HGA16 cells. Trace amine-associated receptor 1 (Homo sapiens), Q96RJ0. antagonist. inhibition, % at 3 µM. hit rate 1.5% among 360,000. AID 624466, 2012;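 active = inhibition above a per-plate cutoff, the mean inhibition of test compounds on that plate plus 3 SD, cut at about 49% in these data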;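 note: 0% = DMSO plus EC80 beta-PEA response and 100% = DMSO alone without agonist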
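Test system: CHO RD-HGA16 cells bearing hTAAR1 | Reagent: β-PEA, EC80 | Compound dosing: 3 µM, single point | Schedule: Dye loading 75 min at 37 °C, then 30 min room temperature | Signal: Calcium fluorescence with Fluo-8 | Evaluation: Percent inhibition of PEA-evoked calcium signal, max/basal emission ratio | Control set: DMSO-only wells and EC80 β-PEA-stimulated wells | Repeats: Singlicate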
The depositor's hits bear a star; . = not tested or not shown; & = joins results of further samples. Only part of the results is shown; rates above refer to the full screens.

[1] CCN[C@@H](C)Cc1cccc(C(F)(F)F)c1
[2] C#C[C@]1(O)CC[C@H]2[C@@H]3CCC4=CC(=O)CC[C@]4(C)[C@H]3CC[C@@]21C
[3] CC(C)C[C@H]1C(=O)N2CCC[C@H]2[C@]2(O)O[C@](NC(=O)[C@@H]3C=C4c5cccc6[nH]cc(c56)C[C@H]4N(C)C3)(C(C)C)C(=O)N12
[4] C[N+]1(C)[C@@H]2CC(OC(=O)[C@H](CO)c3ccccc3)C[C@H]1[C@@H]1O[C@@H]12 (stereo partly specified)
[5] O=P1(N(CCCl)CCCl)NCCCO1 (stereo unspecified)
[6] Oc1ccc2c3c1OC1C(O)CC[C@@]4(O)[C@@H](C2)N(CC2CCC2)CC[C@]314 (stereo partly specified)
[7] C[C@@H]1O[C@@H](O[C@H]2C[C@@H](O)[C@]3(CO)[C@H]4[C@H](O)C[C@]5(C)[C@@H](C6=CC(=O)OC6)CC[C@]5(O)[C@@H]4CC[C@]3(O)C2)[C@H](O)[C@H](O)[C@H]1O
[8] C[C@@H]1CC[C@H]2[C@@H](C)C(=O)O[C@@H]3O[C@@]4(C)CC[C@@H]1[C@]32OO4
[9] CC(C)C[C@H]1C(=O)N2CCCC2[C@]2(O)O[C@](NC(=O)[C@@H]3C=C4c5cccc6[nH]cc(c56)CC4N(C)C3)(C(C)C)C(=O)N12 (stereo partly specified)
[10] O=C1CC[C@@]2(O)[C@H]3Cc4ccc(O)c5c4[C@@]2(CCN3CC2CC2)[C@H]1O5

| entry no. | 1 | 2 | 3 | 4 | 5 | 6 | 7 | 8 | 9 | 10 |
| --- | --- | --- | --- | --- | --- | --- | --- | --- | --- | --- |
| TAAR1 agonist | 2 | 2 | . | 0&4 | 1 | . | . | 1 | . | 1 |
| CHO parental Ca | 4 | 1 | -13 | -1&4 | 9 | -6 | 24&-9 | -11 | 0 | -2 |
| TAAR1 antagonist | 1 | 10 | . | -19&-21 | -15 | . | . | 13 | . | 6 |

Some of these compounds in order of number of heavy atoms, rising:
[1] CCN[C@@H](C)Cc1cccc(C(F)(F)F)c1
[8] C[C@@H]1CC[C@H]2[C@@H](C)C(=O)O[C@@H]3O[C@@]4(C)CC[C@@H]1[C@]32OO4
[4] C[N+]1(C)[C@@H]2CC(OC(=O)[C@H](CO)c3ccccc3)C[C@H]1[C@@H]1O[C@@H]12 (stereo partly specified)
[7] C[C@@H]1O[C@@H](O[C@H]2C[C@@H](O)[C@]3(CO)[C@H]4[C@H](O)C[C@]5(C)[C@@H](C6=CC(=O)OC6)CC[C@]5(O)[C@@H]4CC[C@]3(O)C2)[C@H](O)[C@H](O)[C@H]1O
[3] CC(C)C[C@H]1C(=O)N2CCC[C@H]2[C@]2(O)O[C@](NC(=O)[C@@H]3C=C4c5cccc6[nH]cc(c56)C[C@H]4N(C)C3)(C(C)C)C(=O)N12

| entry no. | 1 | 8 | 4 | 7 | 3 |
| --- | --- | --- | --- | --- | --- |
| TAAR1 agonist | 2 | 1 | 0&4 | . | . |
| CHO parental Ca | 4 | -11 | -1&4 | 24&-9 | -13 |
| TAAR1 antagonist | 1 | 13 | -19&-21 | . | . |
